Compound activity deposited in PubChem BioAssay by several laboratories.
HSV augment – HSV replication enhancement | HSV replication augmentation in cells, fold increase | maximum fold increase | 220,000 tested, 0.005% active | AID 1956;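 active means peak rise of 1.5-fold or more in the series; tested in PC3 cells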;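 further: first round at 10 µM; read as green reporter fluorescence; hits show the peak of a series up to 25 µM; 1 = signal of infected wells without compound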
PKD1 inh – blocks activity of human protein kinase D1. Q15139. PKD1 kinase fluorescence polarization assay. inhibition, %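 (about 10 µM by stock and volumes)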. 200,000 tested, 0.056% active;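 active means inhibition of 50% or more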;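 further: controls were vehicle for no effect and a reference inhibitor for full effect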
INS promoter inh – TRM-6 insulin promoter activity inhibition. AID 1273. 130,000 tested, 0.9% active. inhibition, % at 2 µM. TRM-6 cells (human fetal islet line), insulin promoter-eGFP reporter, imaging; reporter expression induced with tamoxifen;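 active means inhibition above the mean plus 3 SD, with well images judged a real hit on visual review, cut at about 60% in these data, passing the limit was not always enough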
GALR2 agonist – agonists of human galanin receptor 2 (GALR2). GALR2-expressing cells, agonist activation read-out. activation, %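 (tested at 5 µM)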. 140,000 tested, 0.48% active. AID 803;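 active means above mean plus 3 SD of all compounds, about 5% in these data, not always enough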;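 further: 0% = vehicle buffer wells and 100% = reference agonist at full effect; tested in CHO reporter cells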
Target sequence (O43603 whole entry, looked up): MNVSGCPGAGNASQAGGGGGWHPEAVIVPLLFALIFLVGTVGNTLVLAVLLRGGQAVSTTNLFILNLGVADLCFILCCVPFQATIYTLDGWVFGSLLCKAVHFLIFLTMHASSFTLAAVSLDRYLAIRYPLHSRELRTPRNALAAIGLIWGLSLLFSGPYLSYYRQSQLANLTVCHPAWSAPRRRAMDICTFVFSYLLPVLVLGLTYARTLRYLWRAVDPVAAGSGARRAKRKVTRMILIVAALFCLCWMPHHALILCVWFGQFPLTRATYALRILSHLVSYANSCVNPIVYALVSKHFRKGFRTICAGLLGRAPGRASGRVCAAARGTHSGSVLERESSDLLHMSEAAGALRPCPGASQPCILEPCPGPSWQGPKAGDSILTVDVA
RGS16-Gao HTS – regulators of human RGS16-Galphao interaction. binding response (% of control), % at 10 µM. 220,000 tested, 0.38% active. AID 1441. O15492+P09471. bead-based flow cytometry RGS16-Galphao binding, fluorescence; actives lie on both sides;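 active means below 25% or above 175%, edge rows of some plates excepted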;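 further: Galphao activated by GDP with aluminum fluoride before binding; 100% = wells without compound and 0% = beads without RGS; some results beyond the cut were filed as inactive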
Target sequence (O15492 whole entry, looked up): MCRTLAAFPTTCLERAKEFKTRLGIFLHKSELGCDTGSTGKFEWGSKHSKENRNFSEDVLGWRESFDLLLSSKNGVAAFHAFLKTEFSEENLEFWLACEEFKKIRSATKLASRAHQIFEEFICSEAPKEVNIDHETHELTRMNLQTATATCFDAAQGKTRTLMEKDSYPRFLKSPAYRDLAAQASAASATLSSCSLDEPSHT
Target sequence (P09471 whole entry, looked up): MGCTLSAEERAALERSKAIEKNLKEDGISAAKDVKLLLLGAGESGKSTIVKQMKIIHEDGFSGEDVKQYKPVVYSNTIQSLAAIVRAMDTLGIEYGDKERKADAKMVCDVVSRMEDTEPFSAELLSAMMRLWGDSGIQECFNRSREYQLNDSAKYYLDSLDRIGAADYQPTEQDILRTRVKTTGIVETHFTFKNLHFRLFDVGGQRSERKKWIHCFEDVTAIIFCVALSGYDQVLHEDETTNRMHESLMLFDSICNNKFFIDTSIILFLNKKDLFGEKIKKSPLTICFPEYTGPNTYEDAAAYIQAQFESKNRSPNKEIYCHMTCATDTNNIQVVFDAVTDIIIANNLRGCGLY
INS promoter inh cell count – recorded beside INS promoter inh, whose call it bears; normalized cell count, %; measured here: cell count, toxicity; reference of the scale not given here;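 cells exposed to compound for 48 h; stained nuclei by imaging scaled within each plate; lower means fewer cells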
HSV augment primary fold – further read-out of HSV augment, marked with its call; fold increase; compound at 10 µM; measured here: primary screen fold increase 10 uM; tested in PC3 cells;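 GFP signal in the first replicate; 1 = infected wells without compound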
An asterisk follows results filed as active; i = inactive; . = not tested or not shown.

SMILES | HSV augment | HSV augment primary fold | PKD1 inh | INS promoter inh | INS promoter inh cell count | GALR2 agonist | RGS16-Gao HTS
Cc1ccc(S(=O)(=O)NC2(C(F)(F)F)C(=O)Nc3c2c(=O)[nH]c(=O)n3-c2ccccc2)cc1 (centres undefined) | i | 0.98 | -12 | -55 | 113 | 0.2 | 152
COc1ccc2c(Cl)c(-c3nnc(SCC(N)=O)n3C)sc2c1 | i | 0.95 | -4 | . | . | -0.5 | 106
O=C(c1nc2ccccc2[nH]1)c1ccccc1[N+](=O)[O-] | i | 1.1 | . | . | . | . | 104
CCOc1ncccc1C(=O)NCc1ccc(OC)cc1 | i | 0.78 | 5 | . | . | -2.5 | 76
CCC(C)N(C(=O)c1csnn1)C(C(=O)NCc1ccc(F)cc1)c1ccco1 (centres undefined) | i | 0.93 | -4 | . | . | -0.3 | 103
O=c1c2ccccc2nc2c3ccccc3c(NCc3ccco3)nn12 | . | . | 2 | -20 | 71 | -0.7 | 100
COCCOC(=O)C1=C(N)OC2=C(C(=O)CC(C)(C)C2)C1c1cccnc1 (centres undefined) | i | 1 | -9 | -29 | 73 | -0.9 | 108
CCOC(=O)c1c(C)n(C)c2ccc(OCC(O)CN3CCN(C)CC3)cc12 (centres undefined) | i | 0.89 | 7 | . | . | -1.8 | 97
CCOC(=O)C1=C(N)N(c2cc(S(=O)(=O)N3CCOCC3)ccc2Cl)C(=O)C1 | i | 1 | -6 | -14 | 100 | . | 99
CCC(=O)N1CCN(C(C)=O)C1c1ccccc1 (centres undefined) | i | 1 | -8 | 27 | 110 | -0.5 | 109
CCc1nnc(NC(=O)C2CCCCN2S(=O)(=O)c2ccccc2)s1 (centres undefined) | i | 0.69 | 4 | -6 | 78 | . | 117
O=C(CSc1oc(-c2ccco2)nc1S(=O)(=O)c1ccc(Cl)cc1)NCC1CCCO1 (centres undefined) | i | 1.1 | 8 | -57 | 138 | 0.8 | 96
Cn1ncc([N+](=O)[O-])c1C(=O)Nc1ccc2c(c1)OCCO2 | i | 0.98 | -4 | -18 | 81 | -2.7 | 102
O=C(C[n+]1ccc(/C=N/O)cc1)NC1CCCCC1 | i | 0.99 | -6 | 47 | 86 | . | 100
CCOC(=O)C1=C(CC)OC(N)=C(C#N)C1c1cccs1 (centres undefined) | i | 1.3 | -10 | -14 | 97 | -3.4 | 102
CCOC(=O)c1ccccc1NC(=O)c1n[nH]c(=O)c2ccccc12 | i | 0.84 | -8 | -62 | 75 | -0.3 | 109
COc1ccccc1NC(=S)NCc1ccco1 | i | 0.92 | -5 | -40 | 107 | -1.1 | 100
CN(C)C(=O)c1cccn(Cc2cccc(C(F)(F)F)c2)c1=O | i | 0.91 | -8 | . | . | . | 98
C/C=C/c1cc(CN2CCN(c3ccc(OC)cc3)CC2)c(O)c(OC)c1 | i | 0.81 | -2 | -39 | 151 | . | 102
CC1=NC(C)Cc2ccccc21 (centres undefined) | i | 0.96 | -10 | . | . | 0.1 | 105
O=S(=O)(NCc1ccccc1)c1ccccc1Br | i | 1.2 | . | . | . | . | 97
[N-]=[N+]=CC(=O)CNC(=O)[C@@H](Cc1ccccc1)N1C(=O)c2ccccc2C1=O | i | 0.94 | 1 | 24 | 45 | -2.0 | 107
Cc1ccc(N(C(=O)Cn2nnc(-c3ccc(C)o3)n2)C(C(=O)NC2CCCC2)c2ccco2)cc1 (centres undefined) | i | 0.8 | 0 | . | . | -0.5 | 99
C=C(C)C(=O)Nc1cccc(C2=NOC3(C2)C[C@@H](C(N)=O)N(C(=O)/C=C/CC)C3)c1 (some centres undefined) | i | 0.85 | . | . | . | . | 103
Clc1ccc(-c2ccccc2)nn1 | i | 0.96 | . | . | . | . | 100
CCOC(=O)c1cc2c(=O)n3ccccc3nc2n(Cc2ccco2)c1=NC(=O)c1ccc(OC)cc1 | i | 0.96 | 4 | -53 | 106 | . | 96
Cc1ccccc1NC(=O)C1CC(=O)N(Cc2ccccc2)C1 (centres undefined) | i | 0.84 | 5 | . | . | . | 98
O=C(NO)C1CC2C=CC1C2 (centres undefined) | i | 0.84 | -4 | 64 | 104 | -1.8 | 107
CN(C)S(=O)(=O)c1ccc(C(=O)OCC(=O)NCc2ccco2)cc1 | i | 0.89 | -2 | . | . | . | 95
N#CC(c1ccc(Cl)cc1)c1nc2ccccc2nc1C(F)(F)F (centres undefined) | i | 1 | 4 | 0 | 81 | -0.3 | 89
CC(=O)c1ccc(NS(=O)(=O)c2ccc(CC(C)C)cc2)cc1 | i | 0.99 | -12 | 0 | 142 | -1.4 | 117
COC(=O)CCC(=O)OC1(C)C(=O)C=C2C=C(C3CC3)N(CCCCO)C=C2C1=O (centres undefined) | i | 1.1 | . | . | . | . | 99
COc1ccccc1C1/C(=C(/O)c2ccccc2)C(=O)C(=O)N1CC(C)C (centres undefined) | i | 0.92 | -6 | 47 | 98 | -1.7 | 106
COc1cc(NC(=O)COC(=O)CSc2ccccc2F)c(C)cc1[N+](=O)[O-] | i | 0.99 | 1 | -6 | 89 | -0.2 | 104
CC1CCc2cc(F)ccc2N1C(=O)c1ccncc1 (centres undefined) | i | 0.96 | -15 | 0 | 94 | -0.8 | 94
CC(C)c1cc(C(=O)OCC(=O)NC(=O)NCc2ccco2)c(O)c(C(C)C)c1 | i | 1 | 0 | . | . | . | 105
Cc1ccc(N=N/C(=C\O)C(=O)c2ccc(Cl)cc2)cc1 | . | . | -4 | -7 | 88 | . | 43
CCC(=O)N1C(C(=O)N2CCCC2)CSC1c1ccc(OC)cc1 (centres undefined) | . | . | 6 | 40 | 139 | 0.4 | 66
COc1cccc(/C=C2\SC(=S)NC2=O)c1OS(=O)(=O)c1ccc(NC(C)=O)cc1 | . | . | -7 | -15 | 116 | -1.3 | 102
CN(C)CCCN1C(=O)C(O)=C(C(=O)c2cccs2)C1c1cccc([N+](=O)[O-])c1 (centres undefined) | i | 0.95 | -5 | . | . | . | 106
COc1ccccc1C(=O)C1CCCN(C(=O)CSc2ccccn2)C1 (centres undefined) | i | 0.94 | -3 | . | . | . | 93
O=C(O)c1ccccc1OCCOCCOc1ccccc1C(=O)O | i | 0.75 | -2 | 16 | 125 | -1.1 | 108
COc1cccc(OCc2nc(-c3cccc([N+](=O)[O-])c3)no2)c1 | i | 1.1 | -4 | 6 | 104 | . | 103
O=C(COC(=O)c1ccc(NS(=O)(=O)c2cccs2)cc1O)Nc1ccc(F)cc1 | i | 1.1 | . | . | . | . | 101
CC1CC(C)CN(C(=O)/C=C/c2ccc([N+](=O)[O-])s2)C1 (centres undefined) | i | 0.88 | -3 | -35 | 102 | . | 11*
Cc1ccc(C2=NN=C(NC(=O)CSc3nncn3C)SC2)cc1 | i | 1.1 | -4 | . | . | . | 94
CCOC(=O)c1sc(-c2ccc(Br)cc2)cc1N | i | 0.9 | -3 | 5 | 105 | 0.0 | 105
CCn1c(CNC(=O)c2cccs2)nnc1SCC(=O)NCCc1ccccc1 | i | 0.82 | -9 | -35 | 111 | -0.7 | 97
COc1ccccc1/C=N/n1c(C)nnc1-n1nc(C)cc1C | i | 0.94 | -2 | -39 | 79 | -0.8 | 106
Cc1ccc(N(C(=O)c2csnn2)C(C(=O)NC(C)(C)C)c2ccccn2)cc1 (centres undefined) | i | 0.99 | 3 | -335 | 4 | . | 106
COc1ccc(Cl)cc1NC(=S)N1CCN(S(C)(=O)=O)CC1 | i | 0.95 | . | . | . | . | 103
Cc1ccc(NS(=O)(=O)c2ccc(NC(=O)c3cccs3)cc2)c(C)c1 | i | 1 | -3 | -47 | 77 | 0.2 | 106
O=C1c2ccccc2C(=O)c2cc(S(=O)(=O)Nc3ccccc3)ccc21 | i | 1 | -2 | 13 | 119 | -2.3 | 100
O=C(O)CN1C(=O)SC(Nc2ccc(C(=O)O)cc2)C1=O (centres undefined) | i | 0.86 | -1 | -19 | 133 | -0.5 | 99
COC(=O)Cn1c(=NC(=O)c2sc3ccccc3c2Cl)sc2cc(S(N)(=O)=O)ccc21 | i | 0.83 | -3 | -16 | 162 | 0.0 | 107
CC(=O)c1c(O)ccc2c(-c3ccccc3)cc(=O)oc12 | i | 1.1 | -6 | 29 | 167 | 1.3 | 95
Cc1ccc(NC(=O)CCC(=O)NNC(=O)c2ccccc2[N+](=O)[O-])c(C)c1 | i | 0.93 | -2 | . | . | . | 97
COC(CNC(=O)c1ccc2c(c1)nc(C)n2-c1cccc(F)c1)OC | i | 1 | 1 | . | . | -0.3 | 113
O=C(O)/C=C/C(=O)NCCC1=CCCCC1 | . | . | -7 | 36 | 69 | . | 158
O=C(CNC(=O)c1ccco1)N/N=C/c1cccs1 | i | 1.1 | . | . | . | . | 99
Additional structures.
SMILES | HSV augment | HSV augment primary fold | PKD1 inh | INS promoter inh | INS promoter inh cell count | GALR2 agonist | RGS16-Gao HTS
CCN1CCCC1CNC(=O)CSCc1nc(-c2ccccc2C)oc1C (centres undefined) | i | 0.85 | 5 | 21 | 119 | -5.8 | 103
CCOc1cc2[nH]c(=S)n(CCOC)c(=O)c2cc1OCC | i | 0.82 | -4 | -22 | 36 | -0.8 | 96
Cc1cccc(CN2CCC(CNC(=O)C3CCCN(S(=O)(=O)c4cnc[nH]4)C3)CC2)c1 (centres undefined) | i | 0.83 | -1 | 14 | 94 | 0.2 | 94
COc1cccc(C(=O)Nc2nc3ccccc3[nH]2)c1 | i | 1.1 | 6 | 17 | 105 | -2.3 | 94
COc1ccc(-c2cc(C(=O)Nc3cc(OC)c(OC)c(OC)c3)no2)cc1OC | i | 0.96 | -7 | 3 | 92 | -2.7 | 61
CCOC(=O)c1cnn(-c2ccc(C)cc2)c1N | i | 1 | -6 | 7 | 117 | -6.1 | 103
O=C(CSc1nnc(-c2ccccc2NC(=O)c2ccccc2)o1)OC1CCCCC1 | i | 0.86 | 2 | -25 | 85 | -1.1 | .
CCCn1c(N)c(C(=O)CSc2nnc(C)n2Cc2ccccc2)c(=O)n(C)c1=O | i | 0.92 | 2 | 51 | 62 | -1.3 | 101
O=C(Nc1ccc(Cl)c(Cl)c1)C1=Cc2ccccc2OC1 | i | 0.89 | -1 | -28 | 177 | -2.8 | 106

Grouped by structure, the entries above containing a thiophene ring, fused or not (ten)
SMILES | HSV augment | HSV augment primary fold | PKD1 inh | INS promoter inh | INS promoter inh cell count | GALR2 agonist | RGS16-Gao HTS
COc1ccc2c(Cl)c(-c3nnc(SCC(N)=O)n3C)sc2c1 | i | 0.95 | -4 | . | . | -0.5 | 106
CCOC(=O)C1=C(CC)OC(N)=C(C#N)C1c1cccs1 (centres undefined) | i | 1.3 | -10 | -14 | 97 | -3.4 | 102
CN(C)CCCN1C(=O)C(O)=C(C(=O)c2cccs2)C1c1cccc([N+](=O)[O-])c1 (centres undefined) | i | 0.95 | -5 | . | . | . | 106
O=C(COC(=O)c1ccc(NS(=O)(=O)c2cccs2)cc1O)Nc1ccc(F)cc1 | i | 1.1 | . | . | . | . | 101
CC1CC(C)CN(C(=O)/C=C/c2ccc([N+](=O)[O-])s2)C1 (centres undefined) | i | 0.88 | -3 | -35 | 102 | . | 11*
CCOC(=O)c1sc(-c2ccc(Br)cc2)cc1N | i | 0.9 | -3 | 5 | 105 | 0.0 | 105
CCn1c(CNC(=O)c2cccs2)nnc1SCC(=O)NCCc1ccccc1 | i | 0.82 | -9 | -35 | 111 | -0.7 | 97
Cc1ccc(NS(=O)(=O)c2ccc(NC(=O)c3cccs3)cc2)c(C)c1 | i | 1 | -3 | -47 | 77 | 0.2 | 106
COC(=O)Cn1c(=NC(=O)c2sc3ccccc3c2Cl)sc2cc(S(N)(=O)=O)ccc21 | i | 0.83 | -3 | -16 | 162 | 0.0 | 107
O=C(CNC(=O)c1ccco1)N/N=C/c1cccs1 | i | 1.1 | . | . | . | . | 99

This is a random part of the collection; overall some 1.3% were active at least once.
